Screening data (PubChem BioAssay)
E coli growth – E. coli growth inhibition; actives 0.21% (n = 330,000); AID 1053175; OD600 absorbance (test concentration not listed); Escherichia coli growth, OD600, 23 h; active compounds read low;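 active = OD600 absorbance below the run mean of sample wells minus 3.6 SD, in any replicate, cut at about 0.56 in these data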;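 note: stock transfer was 300 nL into about 60 µL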
A1 inh – inhibitors of the anti-apoptotic protein A1, read as caspase activation | MEF A1-2A-BIM cells, Caspase-Glo 3/7 luminescence, 3 h; percent of clofoctol response, vehicle zero | caspase activation, % (concentration not given with the values) | actives 0.066% (n = 330,000);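 active = over half of replicate activation scores above 10%, or exactly half above 10 with the replicate mean above 10; inconclusive = replicate mean below 10 yet half the replicates above 10; inactive = over half of replicates below 10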;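 note: wells of about 30 µL received 50 nL stock; many hits fall short of the cut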
HNF4A DNA FP – change in binding of human HNF4 alpha to DNA; P41235; HNF4a-FITC DNA binding, fluorescence polarization, 1 h; activity change, % at 10 µM; actives 0.3% (n = 360,000); AID 1224865; in the data active = activity change above about 30%, passing the limit was not always enough;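 note: controls were the assay level and a saturating level of protein; the project sought stronger binding though the title names inhibitors; some compounds called inactive have numbers as strong as hits; positive values seem to mean higher polarization but the record does not say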
Target sequence (P41235 whole entry, looked up): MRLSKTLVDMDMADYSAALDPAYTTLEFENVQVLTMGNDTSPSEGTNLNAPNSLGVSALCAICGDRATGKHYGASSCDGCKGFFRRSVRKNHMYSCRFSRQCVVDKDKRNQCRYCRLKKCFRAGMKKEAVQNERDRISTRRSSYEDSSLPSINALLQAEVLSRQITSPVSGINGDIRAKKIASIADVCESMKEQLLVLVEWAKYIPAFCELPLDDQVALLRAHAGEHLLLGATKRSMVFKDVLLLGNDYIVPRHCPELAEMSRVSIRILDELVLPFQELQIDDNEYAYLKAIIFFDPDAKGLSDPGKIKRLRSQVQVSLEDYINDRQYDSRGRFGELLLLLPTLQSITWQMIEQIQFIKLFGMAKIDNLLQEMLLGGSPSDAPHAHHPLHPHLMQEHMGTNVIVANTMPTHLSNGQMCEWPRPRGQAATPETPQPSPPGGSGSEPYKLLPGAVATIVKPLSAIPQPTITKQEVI
B2AR ag – human beta-2 adrenergic receptor agonism by FAP; P07550; Am2.2-beta2AR cells, FAP receptor internalization, flow cytometry; reference of the scale not given here; response, % (test concentration not listed); actives 0.43% (n = 340,000);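 active = response above a set limit, near 3 SD of response in nonfluorescent compounds, cut at about 42% in these data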;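 note: stock transfer was 100 nL into about 11 µL; a reference agonist was the positive control; negative values mostly stem from fluorescent compounds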
Target sequence (P07550 whole entry, looked up): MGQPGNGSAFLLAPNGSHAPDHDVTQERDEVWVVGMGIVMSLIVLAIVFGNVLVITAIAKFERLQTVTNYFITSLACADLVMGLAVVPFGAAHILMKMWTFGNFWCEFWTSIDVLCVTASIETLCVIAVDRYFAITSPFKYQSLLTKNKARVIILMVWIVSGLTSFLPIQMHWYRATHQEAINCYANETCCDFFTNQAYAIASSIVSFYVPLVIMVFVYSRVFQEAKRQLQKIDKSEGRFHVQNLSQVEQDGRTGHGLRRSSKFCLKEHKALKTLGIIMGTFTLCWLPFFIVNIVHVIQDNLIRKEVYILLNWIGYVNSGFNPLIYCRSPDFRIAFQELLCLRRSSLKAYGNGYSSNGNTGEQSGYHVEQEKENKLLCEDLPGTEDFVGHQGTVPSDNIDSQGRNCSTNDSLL
Vif TR-FRET – HIV-1 Vif–A3G interaction blockers – biochemical, TR-FRET, GST-Vif 1-94, biotin-A3G peptide, dose response retest, primary screen (AID 1117319). actives 0.57% (n = 260,000). TR-FRET GST-Vif / biotin-A3G peptide binding; higher % means a stronger effect; test concentration not given here; strong numbers were not always called active. inhibition, %; hits with a dose series show IC50 in µM;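 active = above the screen mean plus three standard deviations and confirmed in dose response; inconclusive = results disagree or hit not tested in dose response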;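 note: Vif residues 1-94 fused to GST binding biotinylated APOBEC3G peptide 110-148; 0% = full assay without inhibitor and 100% = GST in place of GST-Vif; retest series ran down from 100 µM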
LANA-H2B inh – blocks KSHV LANA binding to histone H2A/H2B; Q9QR71; cell-free LANA-H2A/H2B peptide, fluorescence polarization; inhibition, % (concentration not given with the values); actives 0.6% (n = 320,000); in the data active = inhibition mostly above about 10%, no sharp cut-off; inactive = mostly below about 6.7%;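 note: stock transfer was 7.5 nL into about 10 µL; 0% = median of vehicle wells and 100% = median of positive control wells; one replicate is shown; the record names a cut of 25% in any replicate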
UCH37 inh – human UCH37 deubiquitinating enzyme inhibition. Q9Y5K5. purified proteasome/UCH37, Ub-AMC cleavage fluorescence. inhibition, % (no concentration beside the values). actives 0.33% (n = 330,000). AID 588478;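 active = mean of two replicates above 20%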;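 note: 0% = compound-free wells with enzyme and 100% = wells lacking proteasome; stock transfer was 100 nL into about 20 µL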
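Material: Human UCH37 enzyme supplied as purified proteasome complex | Schedule: 30 min compound-proteasome preincubation then 25 min substrate reaction, room temperature | Detection: AMC fluorescence from Ub-AMC cleavage, excitation 355 nm, emission 460 nm | Benchmarks: Wells without proteasome as full block, compound-free enzyme plus substrate as uninhibited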
* hit, by the source's call; i = inactive; ? = inconclusive; . = no result given. Rows were taken by chance (roughly 2.1% active in at least one column).

SMILES	E coli growth	A1 inh	HNF4A DNA FP	B2AR ag	Vif TR-FRET	LANA-H2B inh	UCH37 inh
Cc1cc2[nH]c(=O)c(=O)[nH]c2cc1S(=O)(=O)Nc1cccc(Cl)c1C	0.74	0.1	-1.4	-1.1	.	1.8	0.5
Cc1cccc(NC(=O)CNC(=O)COc2ccc(C(=O)c3ccc(F)cc3)cc2)c1C	0.642	0.5	-9.9	-5.2	-9.3%	0.9	0.6
COc1ccc2nc(-c3ccccc3)nc(C3CCCCC3)c2c1	0.669	0.2	2.6	-6.6	.	2.5	2.2
CCOc1ccc(C(=O)N(Cc2ccc(N(C)C)cc2)C2CCS(=O)(=O)C2)cc1 (stereo unspecified)	0.716	0.0	4.2	5.7	7.5%	-0.3	4.2
OC(CN1CCCC1)Cn1ccc2ccccc21 (stereo unspecified)	0.684	0.2	1.9	5.2	0.0%	-3.7	3.2
Cc1ccc(-n2c(N)c(C(=O)Nc3ccccc3F)sc2=S)cc1C	0.654	-1.0	-1.2	0.0	-6.5%	.	4.1
COc1ccc(CN(CC(=O)NC2CCCC2)C(=O)CCC(=O)Nc2nc(C)cs2)cc1	0.656	-0.4	-1.9	-6.0	.	-3.4	1.6
CC1CCN(C(=O)CSc2n[nH]c(-c3cccs3)n2)CC1	0.682	-0.7	-1.1	-0.7	.	0.2	0.9
FC(F)(F)COc1ccc(-c2nnc(SCc3ccccc3)o2)cn1	0.672	-0.4	2.2	8.5	-21.1%	0.6	1.8
COCCN(CC1CCCN(C2Cc3ccccc3C2)C1)C(=O)c1cccc(C)c1 (stereo unspecified)	0.662	-0.1	0.4	-1.4	1.9%	-1.2	0.2
CC(C)(C)OC(=O)NCC(=O)N1CCC(C(=O)O)CC1	0.694	0.7	-0.7	19.8	4.2%	-3.5	3.0
O=C(Cc1ccccc1)N1CCC2(CC1)NCCc1[nH]cnc12	0.722	-0.7	0.1	-3.3	3.4%	5.6	0.7
COc1ccc(CN(C)C(=O)COC(=O)c2cc([N+](=O)[O-])ccc2N2CCCC2)c(OC)c1OC	0.664	-0.3	4.4	6.0	.	-2.3	7.1
O=C(N/N=C\c1ccccc1)c1sccc1-n1cccc1	.	-0.3	-1.8	-1.2	2.6%	4.7	.
COc1ccc(NC2=NC(=S)N(c3cccc(C)c3)C23CCCCC3)cc1	0.726	0.3	1.6	-0.4	30.1%	-0.1	5.0
CCOc1ccccc1N(C(=O)Nc1ccc(Cl)cc1)C1=NCCS1	0.697	-0.4	0.7	0.6	?	-4.2	5.3
CCN(CC(=O)NNC(=O)c1ccccc1)Cc1ccc(OC)c(F)c1	0.681	1.5	-3.4	27.7	.	0.6	1.0
Cc1ccc(N2C(=O)CC3(CCCC3)CC2=O)cc1	0.672	-0.3	3.0	-5.6	2.7%	-2.8	5.8
Cc1ccccc1C(=O)NC(NC(=O)c1ccccc1C)c1cccc([N+](=O)[O-])c1	0.716	0.3	-3.2	3.8	2.1%	.	3.4
Cc1nn(C)cc1C(C(=O)NC1CCCCC1)N(Cc1ccc(F)cc1)C(=O)c1cnccn1 (stereo unspecified)	0.652	-0.8	-2.7	-4.7	.	0.8	2.7
Cn1cnnc1SCC(=O)NNC(=O)c1ccc([N+](=O)[O-])cc1	0.653	-0.4	1.0	-2.6	2.6%	-2.5	5.5
O=C1CC(c2cccs2)Cc2nc(NC(=O)C3CC3)ncc21 (stereo unspecified)	0.669	-0.1	4.7	-10.2	.	0.8	-0.7
Cc1nc2ccccc2c2oc(C(=O)N3CCC(C)CC3)cc12	0.673	0.4	1.9	-16.2	0.3%	3.3	1.4
O=C(CCSc1ccccc1)NC1CCCCCC1	0.61	1.4	-0.3	-5.2	1.7%	-7.8	4.1
N#CCO/N=C/C(=O)Nc1ccc(F)cc1F	.	0.2	0.9	-6.4	7.2%	2.4	.
Cc1onc(-c2ccccc2Cl)c1C(=O)Nc1nnc(-c2ccc(Br)cc2)s1	0.751	0.8	-3.5	10.6	-53.8%	-1.9	-31.4
Fc1ccc(C2=CC(c3ccco3)n3nnnc3N2)cc1 (stereo unspecified)	0.735	-0.9	0.7	-0.3	-1.2%	-4.9	5.3
Cc1cc(NC(=O)c2cccc3ccccc23)cc(C)c1OCC(=O)N1CCOCC1	0.797	0.1	-2.7	7.0	1.3%	0.2	-4.7
Cc1ccc(CN2C(=O)CCSc3ccc(Cl)cc32)cc1	0.652	2.4	-0.4	-1.0	13.7%	-1.5	4.6
COc1ccc(Cl)cc1NC(=O)CN(C)Cc1ccc(OC)c(OC)c1	0.678	0.2	-1.7	2.4	.	-1.9	2.7
Cc1cccc(C)c1OCc1nc2ccccc2c(=O)n1/N=C/c1c[nH]c2ccccc12	.	-0.8	-2.4	4.4	.	-7.4	.
CC1CC(C)CN(C(=O)Cn2c(=O)c3cccn3c3cccnc32)C1 (stereo unspecified)	0.7	1.1	-3.0	0.7	.	3.7	-8.8
CCN(C(=O)COC(=O)c1cncc(Br)c1)C1CCS(=O)(=O)C1 (stereo unspecified)	0.649	1.8	3.0	1.6	1.0%	-0.5	0.4
Fc1ccc(Cn2c(SCc3ccc(F)c(C(F)(F)F)c3)nnc2C(F)(F)F)cc1	0.751	-0.5	0.6	-4.5	8.8%	-1.6	3.2
Cc1cc(NCCO)c2cc(O)ccc2n1	0.77	1.1	0.8	2.3	3.8%	-10.5	i
COc1ccc(/C=C2/SC(=O)N(CCC(=O)Nc3ccc(C)cc3)C2=O)cc1OC	.	3.2	.	.	31.4%	7.6	-5.5
Cc1ccc(/C=N/N2CCN(c3ccccn3)CC2)o1	.	-2.7	-0.8	-0.9	-6.2%	-3.0	.
COCc1c(C(N)=O)nnn1-c1nonc1N	0.676	0.3	-2.4	1.6	-3.2%	0.4	5.4
CCCc1cc(C(=O)Nc2cc(Br)ccc2O)no1	0.753	-0.7	2.8	17.9	0.3%	-1.7	4.7
NNc1nc2sc3c(c2c(=O)n1-c1ccccc1)CCCC3	0.696	0.4	-5.6	6.0	12.9%	-4.8	2.0
O=C1CC(C(=O)Nc2ccccc2)C2(CCCCC2)O1 (stereo unspecified)	0.715	?	-1.7	-8.1	4.1%	-4.1	0.1
CC(C)[C@H](NC(=O)[C@@H]1CSC2c3ccccc3C(=O)N21)C(=O)NC1CCCC1 (stereo partly specified)	0.731	-2.0	1.4	-2.2	.	-0.2	4.5
COc1ccccc1/C=C\C=N\n1c(-c2ccc(Cl)cc2)n[nH]c1=S	.	-1.1	-1.8	3.6	?	1.9	.
CN(C)c1nc(=NCc2ccco2)ss1	.	0.9	0.1	11.7	.	-0.5	.
Clc1ccc(SCCCCN2CCNCC2)cc1	.	-0.7	0.7	8.1	11.2%	1.1	.
CCCCCCn1c2c(c(=N)c3c1CCC3)CCC2	0.604	-0.6	3.2	-5.1	10.3%	4.0	2.4
O=C(NCc1ccco1)C1Cc2ccccc2CN1C(=O)c1ccco1 (stereo unspecified)	0.697	0.8	-1.0	5.4	20.2%	6.2	0.8
CC1(C)CC(C)(c2ccc(O)cc2O)N(c2ccc3ccccc3c2)C(=S)N1 (stereo unspecified)	0.771	0.5	0.1	0.2	-0.7%	0.0	5.4
CC1CCN(S(=O)(=O)c2ccc(NC(=O)C3CC3)cc2)CC1	0.655	-0.7	-0.9	-6.0	.	4.1	0.1
CC(C)(C)NC(=O)CSc1nc2[nH]ncc2c(=O)[nH]1	0.707	0.8	-0.3	11.2	6.4%	5.2	5.8
CC1(C)Oc2ccc3ccc(=O)oc3c2C[C@H]1O	.	0.2	3.4	0.8	13.5%	0.9	-50.0
CN(Cc1ccon1)C(=O)CCc1nnc(CCCCc2ccccc2)o1	0.693	-0.2	-0.1	-7.2	7.8%	2.3	2.0
COc1ccc(Cn2cnc3c(N)c(C)c(C)cc32)cc1	0.652	0.6	-2.8	-3.3	0.2%	2.3	4.1
O=C(CNC(=S)N(Cc1ccccc1)Cc1ccccc1F)NCCc1ccc(Cl)cc1	0.702	0.5	2.6	2.9	.	3.8	1.3
Cc1cccc(N/C(N)=N/c2nc(C(F)(F)F)cc(=O)[nH]2)c1C	0.659	0.4	1.2	-5.6	-5.2%	3.8	2.3
COc1cc(NC(C)=O)ccc1-c1cc2ccccc2oc1=O	0.66	0.3	3.5	4.3	4.9%	-0.6	-46.6
CC(C)(C)OC(=O)C[C@@H]1C/C=C\C[C@H](CC(=O)N(CCO)Cc2ccccc2)C(=O)NC[C@H](c2ccccc2)OC1=O	.	0.8	2.4	3.8	.	-0.5	1.7
Cc1csc(=O)n1CCC(=O)OCC(=O)NNC(=O)c1ccccc1	0.692	-0.9	0.0	2.4	9.3%	0.8	3.2
O=C(CSc1ncn[nH]1)CSc1ncn[nH]1	0.696	0.6	0.8	1.7	-18.1%	-1.4	-1.8
COc1cccc(CN(C)C(=O)c2ccc(N3CCCC3)c([N+](=O)[O-])c2)c1	0.728	0.3	-0.6	-18.1	.	3.3	-0.6

Later entries.
SMILES	E coli growth	A1 inh	HNF4A DNA FP	B2AR ag	Vif TR-FRET	LANA-H2B inh	UCH37 inh
COc1ccc(-c2nnc3sc(CCN4C(=O)c5ccccc5C4=O)nn23)cc1	0.738	-0.4	0.6	-11.4	30.2%	1.6	3.2
Cc1cccc(NC(=O)C2C3CCC4C(CCC32)C4(Cl)Cl)c1 (stereo unspecified)	0.697	1.0	-2.9	0.5	?	4.9	1.4
CS(=O)(=O)c1ccc2nc(NC(=O)c3ccc(NS(=O)(=O)c4cccc([N+](=O)[O-])c4)cc3)sc2c1	0.644	-2.3	-2.1	28.7	11.7%	-0.4	5.0
O=C(CCc1nc(-c2ccccc2)no1)N1CCCC1	0.667	-2.3	4.3	-1.2	1.5%	0.3	-0.1
COc1ccc(-n2c(SCC3OCCO3)nc3c(sc(=S)n3-c3ccccc3)c2=O)cc1OC	0.702	0.4	-2.0	-8.2	2.2%	.	6.1
O=C(NCCc1ccccc1)C1c2ccccc2C(=O)N1Cc1cccs1 (stereo unspecified)	0.65	-0.5	2.3	2.7	-5.4%	1.3	0.8
CCCC(=O)Nc1cc(S(=O)(=O)N(CC)CC)ccc1Cl	0.716	0.4	2.7	-0.6	.	1.6	1.5
COc1ccccc1/C=C/C(=O)NCCc1ccccn1	0.695	-0.6	-2.7	-3.4	.	-7.5	-3.3
CCOC(=O)c1sc2ncnc(N3CCN(c4ccc(OC)cc4)CC3)c2c1C	0.69	1.0	0.9	-6.6	5.8%	0.1	-0.2
Cc1ccc(S(=O)(=O)N(C)C)cc1-n1c(SCC(=O)N(C)C)nc2ccccc2c1=O	0.697	0.1	-2.7	-11.5	10.4%	-5.9	0.3
Cc1ccc(Cl)cc1NC(=O)Nn1cnnc1	0.714	1.2	2.1	3.6	.	-0.9	-0.2
CC(C)(C)Nc1nc(Nc2ccc([N+](=O)[O-])cc2)nc(NC(C)(C)C)n1	0.647	0.3	0.9	11.1	-1.0%	-4.6	6.9
N#Cc1ccccc1OCC(=O)OCC(=O)NCc1ccc2c(c1)OCO2	0.649	1.1	0.8	3.9	10.2%	3.0	0.4
CCC(=O)Nc1ccc2nc(C3CC3)n(Cc3ccccc3)c(=O)c2c1	0.711	-10.1	-3.9	2.5	-9.7%	-6.5	-3.4
O=C(c1ccc(-c2ccccc2)cc1)C1CCCN(Cc2ccncc2)C1 (stereo unspecified)	0.62	0.2	-3.3	6.2	-3.9%	-13.0	2.1
COc1ccccc1N1CCN(C(=O)c2sc3ncnc(N4CCN(c5ccccn5)CC4)c3c2C)CC1	0.673	-1.0	3.5	17.8	.	5.8	4.5
OC(CNCc1ccccc1)COc1ccccc1 (stereo unspecified)	0.691	0.1	-0.3	-4.3	.	-2.5	4.0
